# GALR2 ag – activates the human galanin receptor 2 | actives 0.48% (n = 140,000) | O43603 | activation, %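 (tested at 5 µM)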 | GALR2-expressing cells, agonist activation read-out;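 active means above mean plus 3 SD of all compounds, about 5% in these data, not always enough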;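 further: 0% = vehicle buffer wells and 100% = reference agonist at full effect; tested in CHO reporter cells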
# Target sequence (O43603 whole entry, looked up): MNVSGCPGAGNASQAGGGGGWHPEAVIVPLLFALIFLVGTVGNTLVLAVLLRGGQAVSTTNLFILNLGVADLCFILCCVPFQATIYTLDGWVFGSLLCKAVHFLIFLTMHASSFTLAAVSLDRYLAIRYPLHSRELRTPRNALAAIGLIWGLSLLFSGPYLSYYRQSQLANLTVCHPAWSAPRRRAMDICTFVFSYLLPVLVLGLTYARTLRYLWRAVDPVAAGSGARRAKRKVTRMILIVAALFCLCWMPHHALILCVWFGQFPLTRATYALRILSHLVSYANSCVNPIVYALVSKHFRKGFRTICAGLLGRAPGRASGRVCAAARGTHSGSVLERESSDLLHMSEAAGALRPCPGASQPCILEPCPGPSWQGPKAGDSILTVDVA
# RGS16-Gao – regulators of human RGS16-Galphao interaction | AID 1441 | bead-based flow cytometry RGS16-Galphao binding, fluorescence; actives lie on both sides | binding response (% of control), % at 10 µM | actives 0.38% (n = 220,000);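 active means below 25% or above 175%, edge rows of some plates excepted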;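 further: Galphao activated by GDP with aluminum fluoride before binding; 100% = wells without compound and 0% = beads without RGS; some results beyond the cut were filed as inactive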
# Target sequence (O15492 whole entry, looked up): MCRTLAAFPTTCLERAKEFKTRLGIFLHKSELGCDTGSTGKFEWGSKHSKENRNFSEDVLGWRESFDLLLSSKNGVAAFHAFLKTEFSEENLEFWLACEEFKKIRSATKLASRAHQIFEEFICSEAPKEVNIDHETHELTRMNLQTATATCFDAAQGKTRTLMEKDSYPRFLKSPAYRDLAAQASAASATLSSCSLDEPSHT
# Target sequence (P09471 whole entry, looked up): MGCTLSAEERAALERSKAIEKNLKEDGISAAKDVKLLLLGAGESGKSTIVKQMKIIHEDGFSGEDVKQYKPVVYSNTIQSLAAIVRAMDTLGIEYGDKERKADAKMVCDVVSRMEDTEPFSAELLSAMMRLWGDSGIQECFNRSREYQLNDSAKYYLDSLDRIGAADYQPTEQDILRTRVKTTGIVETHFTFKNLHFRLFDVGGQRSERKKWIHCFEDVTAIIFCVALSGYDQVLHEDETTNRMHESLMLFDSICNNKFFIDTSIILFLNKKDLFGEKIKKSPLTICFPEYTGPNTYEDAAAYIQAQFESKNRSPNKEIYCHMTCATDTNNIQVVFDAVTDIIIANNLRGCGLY
# HSV augment – HSV replication enhancement; HSV replication augmentation in cells, fold increase; maximum fold increase; actives 0.005% (n = 220,000); AID 1956;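 active means peak rise of 1.5-fold or more in the series; inconclusive means self-fluorescent or not available for retest; tested in PC3 cells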;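 further: first round at 10 µM; read as green reporter fluorescence; hits show the peak of a series up to 25 µM; 1 = signal of infected wells without compound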
# INS promoter inh – TRM-6 insulin promoter activity inhibition. TRM-6 cells (human fetal islet line), insulin promoter-eGFP reporter, imaging; reporter expression induced with tamoxifen. inhibition, % at 2 µM. actives 0.9% (n = 130,000). AID 1273;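 active means inhibition above the mean plus 3 SD, with well images judged a real hit on visual review, cut at about 60% in these data, passing the limit was not always enough; inconclusive means inhibition over the cutoff but images rejected on review; inactive means inhibition not above the cutoff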
# PKD1 kinase inh – PKD1 (human) kinase inhibition | inhibition, %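 (about 10 µM by stock and volumes)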 | AID 797 | PKD1 kinase fluorescence polarization assay | Q15139 | actives 0.056% (n = 200,000);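 active means inhibition of 50% or more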;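 further: controls were vehicle for no effect and a reference inhibitor for full effect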
# INS promoter inh cell count – also measured in INS promoter inh; calls as there; normalized cell count, %; measured here: cell count, toxicity; reference of the scale not given here;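 cells exposed to compound for 48 h; stained nuclei by imaging scaled within each plate; lower means fewer cells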
# HSV augment primary fold – also measured in HSV augment; calls as there; fold increase; compound at 10 µM; measured here: primary screen fold increase 10 uM; tested in PC3 cells;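 GFP signal in the first replicate; 1 = infected wells without compound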
# Active calls of the source: *; i = inactive; ? = inconclusive; . = not tested or not shown.
# Preview, two compounds:
SMILES	GALR2 ag	RGS16-Gao	HSV augment	HSV augment primary fold	INS promoter inh	INS promoter inh cell count	PKD1 kinase inh
O=C(NCc1ccco1)c1cc2sccc2n1Cc1ccc(F)cc1	-2.1	98	i	0.94	3	103	-5
COC(C[C@@H]1O[C@@H]1C(=O)COCc1ccccc1)OC	.	99	i	0.98	.	.	.

# The listing, from the start:
SMILES	GALR2 ag	RGS16-Gao	HSV augment	HSV augment primary fold	INS promoter inh	INS promoter inh cell count	PKD1 kinase inh
O=C(NCc1ccco1)c1cc2sccc2n1Cc1ccc(F)cc1	-2.1	98	i	0.94	3	103	-5
COC(C[C@@H]1O[C@@H]1C(=O)COCc1ccccc1)OC	.	99	i	0.98	.	.	.
Cc1ccc(Nc2nc3ccccc3o2)cc1F	-0.8	101	i	0.96	57	96	2
C=CCN1C(=O)CN=C1NCc1ccccc1	-1.0	102	i	0.92	-64	126	11
Cc1cc(OCC(=O)NC(C)(C)C)ccc1Cl	-0.5	106	i	0.99	3	132	0
COc1ccccc1N1CCN(C(=O)c2sc3nc(-c4ccc(F)cc4)cn3c2C)CC1	-0.9	99	.	.	.	.	-13
C/C(=N\NC(=O)COc1cccc(Cl)c1)c1ccc2c(c1)OCCO2	-1.3	108	i	0.9	-7	95	-17
O=C(Nn1c(SCc2ccc([N+](=O)[O-])cc2)nc2ccccc2c1=O)c1ccc(F)cc1	-1.9	116	i	1	.	.	0
CCN(c1ccc(C)c(C)c1)S(=O)(=O)c1ccc2c(c1)CCN2C(=O)CCC(=O)O	-0.5	107	i	1.1	0	101	-2
Cc1ccc2[nH]cc(CCNC(=O)Nc3ccccc3)c2c1	-2.8	.	i	0.92	39	133	1
O=C(c1cc2cc(Br)ccc2o1)N1CCCC1	.	98	i	1	.	.	-3
CCCn1c(NC(=O)c2ccccc2)nc2ccccc21	-1.0	104	i	1.1	31	88	5
O=C(N/N=C/c1ccccn1)c1cc([N+](=O)[O-])cc([N+](=O)[O-])c1	.	100	i	1	35	101	-3
COc1cc(NC(=O)COC(=O)CSc2ccc3ccccc3c2)c(C)cc1[N+](=O)[O-]	-0.4	104	i	0.97	0	143	-8
N#Cc1ccc(C23CC4CC(CC(C4)C2)C3)[nH]c1=O	0.3	96	i	1	9	99	6
C/C(=N\Nc1nccnc1Cl)c1ccc(F)cc1	.	101	i	0.97	.	.	-1
CC(=O)c1cccc(NC(=O)C2CCCN(S(C)(=O)=O)C2)c1 (centres undefined)	-0.6	103	i	0.89	-30	161	-15
COc1ccc(/C=C2\SC(=NCc3ccccc3)NC2=O)cc1	-1.2	101	i	0.83	.	.	10
O=C(CNC(=O)c1cccc(Br)c1)N/N=C/c1cc(Br)cc(Br)c1O	.	94	i	1.1	.	.	8
Cc1ccc(NC(=O)COC(=O)/C=C/c2ccccc2)cc1S(=O)(=O)N1CCOCC1	.	101	i	0.91	.	.	-10
Cc1c(/C=N\NC(=O)c2csc3ccccc23)cnn1C	-3.3	106	i	0.84	-43	72	-11
CCc1c(C)sc(NC(=O)OC)c1C(=O)N1CCOCC1	-0.4	98	i	0.93	21	113	-1
O=C(NCc1ccco1)c1cc2ccc(O)cc2oc1=O	145*	100	i	1.1	92*	53*	-2
O=C(CCCc1c[nH]c2ccccc12)NCc1ccc2c(c1)OCO2	-2.4	103	i	1	-10	118	-2
COc1ccc(N(C(=O)Cn2nnc(-c3ccc(Cl)cc3)n2)C(C(=O)NCC2CCCO2)c2ccc(C)cc2)cc1 (centres undefined)	-1.9	105	i	0.87	19	81	3
Cc1ccc(NC(=O)NCC(c2cccnc2)N2CCOCC2)cc1 (centres undefined)	-4.0	105	i	1.1	-50	75	-11
Cc1ccc(-c2csc3ncn(CC#N)c(=O)c23)cc1	.	104	i	1.2	.	.	-9
COc1c(O)cc2c(c1O)C(=O)CC(c1ccccc1)O2 (centres undefined)	.	101	i	1.2	.	.	6
CCOC(=O)c1ccc(N2C(=O)CC(N(C)CCc3ccc(OC)c(OC)c3)C2=O)cc1 (centres undefined)	-0.7	100	i	0.96	-18	138	-8
Cc1ccc(SC(C)C(=O)NCCC2=CCCCC2)cc1 (centres undefined)	0.3	99	i	1.1	.	.	15

# Compound profiles, from the list above:
# `Cc1ccc(SC(C)C(=O)NCCC2=CCCCC2)cc1` (centres undefined) across the screens: GALR2 ag: 0.3; RGS16-Gao: 99; HSV augment: i; HSV augment primary fold: 1.1; INS promoter inh: .; INS promoter inh cell count: .; PKD1 kinase inh: 15
# `COc1c(O)cc2c(c1O)C(=O)CC(c1ccccc1)O2` (centres undefined) across the screens: GALR2 ag: .; RGS16-Gao: 101; HSV augment: i; HSV augment primary fold: 1.2; INS promoter inh: .; INS promoter inh cell count: .; PKD1 kinase inh: 6

# Other compounds
SMILES	GALR2 ag	RGS16-Gao	HSV augment	HSV augment primary fold	INS promoter inh	INS promoter inh cell count	PKD1 kinase inh
COc1ccc(NS(=O)(=O)c2cc(NC(=O)CC(=O)c3ccc([N+](=O)[O-])cc3)ccc2C)cc1	.	99	i	1	.	.	8
CN(c1ccc(OCC(=O)N2CCCCC2)cc1)S(=O)(=O)c1cccs1	0.0	101	i	0.96	.	.	-3
CC(=O)NCC1=C(NC(C)=O)C2CC1C(C)(C)C2C (centres undefined)	-4.0	103	.	.	-67	92	-6
Cc1cc(S(=O)(=O)Nc2cc(C)c(O)c(C)c2)c(C)s1	-1.9	.	i	1.1	26	124	1
CCOC(=O)Cc1csc(NC(=O)/C=C/c2ccc(Br)o2)n1	.	90	i	1.1	.	.	.
COc1ccc(C2CC(c3cc(OC)ccc3OC)n3nnnc3N2)cc1 (centres undefined)	-3.2	92	i	1	-21	142	2
COc1ccc(OC)c(S(=O)(=O)N2CCC(C(=O)NCCC3=CCCCC3)CC2)c1	-0.8	102	i	0.93	.	.	-7
O=C(Cc1ccccc1)N/N=C/c1cccn1-c1ccc([N+](=O)[O-])cc1	-0.5	34	i	0.98	-42	99	-7
COc1c(Br)cc(Br)cc1/C=N/n1c(C)nnc1C	-1.3	100	i	1	0	122	-3
COc1ccc(S(=O)(=O)N(CC(=O)NCC2CCCO2)c2ccc(F)cc2)cc1OC (centres undefined)	-3.6	103	i	0.85	-24	131	-13
C=CCN(C(=O)CCC(=O)Nc1cc(C)on1)C(C(=O)NC1CCCC1)c1cccnc1 (centres undefined)	-0.3	119	i	1	-69	81	-4
O=C(CCN1c2ccccc2Sc2ccccc21)Nc1ccccc1	-0.3	99	i	0.91	17	84	-3
O=C(NC1CCSC1=O)c1ccc(Oc2cccc(C(F)(F)F)c2)nc1 (centres undefined)	-1.1	104	i	1	0	160	-8
O=C(N/N=C/c1ccco1)c1cccc([N+](=O)[O-])c1	-0.6	102	i	0.96	.	.	-2
CC1CCCCN1S(=O)(=O)c1ccc(C(=O)Nc2sccc2C(N)=O)cc1 (centres undefined)	-0.6	97	i	0.69	.	.	-2
CCN1CCN(c2nc3ccccc3nc2C(C#N)C(=O)OCc2ccccc2)CC1 (centres undefined)	-0.9	208	i	1.1	-17	119	1
Cc1nc2cc(F)ccc2n1C1CCN(C(=O)c2ccc(F)cc2F)CC1	.	105	i	0.96	13	103	10
CC(C)n1c(SCC(=O)Nc2nc3ccccc3s2)nc2c1c(=O)n(C)c(=O)n2C	-1.8	100	?	.	-40	122	-12
CCCn1c(NCc2ccc3c(c2)OCO3)nc2ccccc21	-1.7	87	i	0.82	33	81	1
CC(=O)c1ccc(NC(=O)CSCCO)cc1	-2.2	98	i	1	36	122	-4
COC(=O)C1CCN(C(=O)c2ccc(NC(C)=O)cc2)CC1	1.4	95	i	1	.	.	-5
C=CCSc1nnc(-c2nnc(SCC=C)n2CC)n1CC	0.3	100	i	0.93	15	147	0
ON=C1CCN(c2ncc(C(F)(F)F)cc2Cl)CC1	-0.6	95	i	0.81	.	.	2
O=P(OC1CCCCC1)(OC1CCCCC1)C(O)c1c(Cl)cccc1Cl (centres undefined)	-1.2	101	i	0.96	-30	135	-8
COc1ccc(C2C(=O)N(C3CCCCCC3)CC(=O)N2Cc2ccccc2)cc1OC (centres undefined)	-1.9	99	i	0.65	18	111	-6
COc1ccc2ccccc2c1C1CC(=O)N2CN(Cc3ccco3)CSC2=C1C#N (centres undefined)	-1.2	102	i	0.8	.	.	-10
COc1cc2c(c(OC)c1OC)-c1c(cc3c(c1OC)OCO3)C[C@H](C)[C@@](C)(O)C2	.	102	i	0.91	.	.	.
Cc1cc(=O)n(C)c(=O)n1CCCCCCOc1ccc([N+](=O)[O-])cc1	0.8	102	i	1	6	92	10
CC(=O)Nc1ccc(S(=O)(=O)NCc2ccc3c(c2)cc(C)n3C)cc1	-4.4	99	i	0.9	.	.	-3
Cn1cc(CNC(=O)C23CC4CC(CC(C4)C2)C3)cn1	-1.2	99	i	1	5	108	-1
Cc1ccc(-n2ncc(Br)c(Br)c2=O)cc1	.	97	i	0.54	-400	12	7
O=C(CC1C(=O)NCCN1C(=O)Nc1ccccc1)Nc1ccc(F)cc1 (centres undefined)	.	98	i	0.94	.	.	.
COC(=O)c1ccc(S(=O)(=O)N2CCCN(Cc3ccc(F)cc3)CC2)n1C	.	85	i	1.1	.	.	.
CC1CN(c2ccc([N+](=O)[O-])cc2Cl)CCN1S(C)(=O)=O (centres undefined)	.	104	i	0.89	.	.	.
C=CCn1c(=O)c2c(nc3n2CCS3)n(C)c1=O	-0.6	106	i	0.85	.	.	-7
CC1=Nn2c(nnc2-c2ccccn2)SC1	0.1	97	i	0.99	12	192	-14
CSc1nnc(C)c(=O)n1COC(=O)c1ccccc1	.	103	i	0.96	33	123	0
CCOc1ccccc1-c1nc(CN2CCCC2c2nccs2)c(C)o1 (centres undefined)	.	97	i	1	-192	79	-8
COc1ccc2c(c1)c1nc3n(c(=O)c1n2CC(=O)Nc1cc(C)[nH]n1)CCS3	.	105	i	0.79	30	109	3
Cc1ccc(OCCNC(=O)Cc2ccc(F)cc2)cc1	.	99	i	1.1	.	.	3
Cc1ccc(NC(=O)Cn2nnc(-c3ccccc3-n3cnnn3)n2)c(C)c1	.	95	i	0.94	-129	71	-3
CCOC(=O)c1[nH]c(C)c(/C(O)=C2\C(=O)C(=O)N(CCCN3CCOCC3)C2c2cccs2)c1C (centres undefined)	.	103	i	0.81	.	.	.
CCCc1cc(C(=O)Nc2cc(C)on2)no1	-1.2	103	i	0.99	.	.	-6
CCNC(=S)Nc1ccc(N(c2ccccc2)C(C)C)cc1	-0.5	102	i	1	-20	81	-3
COC(=O)CNC(=O)c1ccc(F)cc1	.	97	i	0.91	.	.	.
C=CCn1c(SCc2ccc(C#N)cc2)nnc1-c1cccc(Cl)c1	-2.8	97	i	1	38	72	-8
COC(=O)NC(=C(Cl)Cl)S(=O)(=O)c1ccccc1	-1.3	99	i	0.79	-31	83	-3
c1ccc(COc2ccc(OCCCCN3CCCCC3)cc2)cc1	0.0	98	i	0.59	.	.	-9
CCOC(=O)N1CCC(NS(=O)(=O)c2cc(Br)cc3c2N(C(=O)CC)CC3)CC1	-2.4	104	.	.	.	.	66*
Cc1cccc(Nc2nc(N)c([N+](=O)[O-])c(NCc3ccccc3)n2)c1	.	107	i	0.91	.	.	.
CC1CCCN(Cc2nc3c(c(=O)n(C)c(=O)n3C)n2CC(=O)c2ccccc2)C1 (centres undefined)	-1.2	104	i	1	.	.	-8
CS(=O)(=O)N(CC(=O)NC1CCCC1)c1ccc2c(c1)OCCO2	-2.0	100	i	0.84	-5	164	-10
CCCC(=O)Nc1cc(-c2nnc(OC)c3ccccc23)ccc1N1CCCCC1	0.1	99	.	.	.	.	5
CC1(C)CC(=O)CC2(C1)NCC(c1ccccc1)c1c2[nH]c2ccccc12 (centres undefined)	.	97	i	0.96	.	.	-1
CSC(=NCc1ccc(F)cc1)NS(=O)(=O)c1cccs1	-0.9	155	i	0.99	53	75	7
O=C(CSc1nncs1)Nc1ccc(Cl)cn1	1.1	102	i	0.99	.	.	1
CCC(C)c1ccc(OCC(=O)O)cc1 (centres undefined)	-0.2	103	i	0.83	12	167	-10
COc1ccccc1C1CN(c2ccc(F)cc2F)N=C1c1cccs1 (centres undefined)	37*	104	i	1.1	-7	117	-1

# Assay outcomes (PubChem BioAssay)
